Source: PubChem
RE007 growth inh: less growth of the S. pombe RE007 Vpr strain; hit rate 0.21% among 360,000; S. pombe RE007 Vpr strain, BacTiter-Glo ATP luminescence, 24 h; control for the full effect not named in the record; Potency, µM (titrated, usually from 92.2 µM), for inactives: at the highest dose activity change, negative = less growth; active = well fitted falling curve with a large enough effect; inconclusive = small, poorly fitted or top-dose-only effect; inactive = no such curve, though single readings can be large or run the other way;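 note: % is set by controls: 0 for no effect and ±100 for the full control effect; nearly all actives have a fitted effect of over 50% in size; the assay follows cell death caused by Vpr and the record does not say whether a fall means rescue or toxicity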
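Fission yeast RE007 carrying one integrated HIV-1 vpr copy, seeded at OD 0.01 in PMG+AL medium with 23 nL pinned compound. Grown 24 h at 30 degrees; viability read by BacTiter-Glo luminescence after 5 min.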
Lassa entry inh: inhibitors of Lassa virus binding or cell entry | hit rate 1.2% among 300,000 | Lassa virus pseudotype entry inhibition, cell reporter; control for the full effect not named in the record | Potency, µM (series often up to 37.9 µM), for the others: at the highest dose activity change, negative = inhibition, most hits filed as inhibitors; active means well fitted inhibition curve with a large enough effect; inconclusive means small, poorly fitted or top-dose-only effect, or effect the other way; inactive means flat fitted curve, though single readings scatter; tested in HEK293 cells; note: % is set by controls: 0 for no effect and ±100 for the full control effect; nearly all actives have a fitted effect of over 50% in size; luciferase read-out
StopGo reporter: lowers the luciferase signal of an FMDV 2A StopGo reporter; human cells with a luciferase reporter of 2A StopGo recoding; control for the full effect not named in the record; Potency, µM (top dose mostly 57.9 µM), for inactives: top-dose signal change, negative = less light; hit rate 1.2% among 410,000; AID 1159524; active = well fitted falling curve with a large enough effect; inconclusive = small, poorly fitted or top-dose-only effect; inactive = no such curve, though single readings can be large or run the other way; tested in HEK293T cells; note: % is set by controls: 0 for no effect and ±100 for the full control effect; nearly all actives have a fitted effect of over 45% in size; luciferase light after 4 h
MARV entry inh: blocks Marburg virus binding to or entry into cells | Marburg virus pseudotyped entry inhibition, cell reporter; control for the full effect not named in the record; about a third of the inactives were read at about 46 µM | Potency, µM (top dose mostly 37.8 µM), for the others: at the highest dose activity change, negative = inhibition, usual class: inhibitors | hit rate 1.8% among 300,000 | AID 540276; active = well fitted inhibition curve with a large enough effect; inconclusive = small, poorly fitted or top-dose-only effect, or effect the other way; inactive = flat fitted curve, though single readings scatter; tested in HEK293 cells; about a fifth of its hits are not listed in these tables; note: % is set by controls: 0 for no effect and ±100 for the full control effect; luciferase read-out
NS1 function inh: blocks influenza NS1 protein function; S. cerevisiae slowed by influenza A NS1, growth recovery by OD600; Potency, µM (doses to about 46.1 µM), without a hit: at the highest dose activity, positive = more growth; hit rate 0.4% among 270,000; note: actives are rising curves; nearly all actives have a fitted effect of over 50% in size
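In this qHTS, NS1 from influenza A is expressed in budding yeast, where it slows growth. Cells are switched from glucose to 2% galactose medium (pH 6.0, -URA), treated with compound, and growth recovery is read at OD600.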
Cruzain noTriton: cruzain (T. cruzi) inhibition without detergent. hit rate 2.3% among 200,000. Potency, µM, for inactives: max response, negative = inhibition, actives largely listed as inhibitors. purified cruzain, Z-FR-AMC fluorescence, no detergent; active = well fitted curve in the direction sought with a large enough effect; inconclusive = small, poorly fitted or top-dose-only effect, or another doubt; inactive = no such curve, though single readings can be large; an effect the other way counts as inactive or inconclusive;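 note: plate controls were enzyme without inhibitor for no effect and buffer without enzyme for full effect; nearly all actives have a fitted effect of over 40% in size; top concentration of the series not given in the record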
Target sequence (P25779 123-467 limits assumed): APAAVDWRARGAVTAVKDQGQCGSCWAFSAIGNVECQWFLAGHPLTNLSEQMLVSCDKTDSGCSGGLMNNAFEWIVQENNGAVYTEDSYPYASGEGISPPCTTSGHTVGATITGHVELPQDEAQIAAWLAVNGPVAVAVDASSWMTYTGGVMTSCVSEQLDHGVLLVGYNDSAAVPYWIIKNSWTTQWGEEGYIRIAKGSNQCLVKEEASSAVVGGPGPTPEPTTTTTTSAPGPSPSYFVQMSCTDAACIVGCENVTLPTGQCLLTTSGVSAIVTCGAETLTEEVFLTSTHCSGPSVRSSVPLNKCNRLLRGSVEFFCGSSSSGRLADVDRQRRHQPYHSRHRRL
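Purified cruzain at 1.5 nM, pre-incubated 15 min with compound at room temperature in 100 mM sodium acetate pH 5.5, 5 mM DTT, 0.00005% Triton X-100. Reaction started with 2 uM Z-FR-AMC; AMC fluorescence increase over 60 s gives rate.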
SARS PLpro yeast: inhibitors of SARS-CoV papain-like protease in yeast; Potency, µM (series often up to 32.9 µM), for inactives: top-dose activity, positive = growth rescue; S. cerevisiae expressing SARS-CoV PLpro, growth rescue; control for the full effect not named in the record; AID 485353; hit rate 0.19% among 330,000; note: 0% is about no effect; nearly all actives have a fitted effect of over 55% in size; growth read by luminescence after 48 h
Cruzain Triton: inhibitors of Trypanosoma cruzi cruzain with detergent. purified cruzain, Z-FR-AMC fluorescence, 0.01% Triton. Potency, µM, without a hit: max response, negative = inhibition, hits mostly inhibitors. hit rate 0.43% among 200,000; active = well fitted curve in the direction sought with a large enough effect; inconclusive = small, poorly fitted or top-dose-only effect, or another doubt; inactive = no such curve, though single readings can be large; an effect the other way counts as inactive or inconclusive;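 note: plate controls were neutral wells for no effect and buffer without enzyme for full effect; nearly all actives have a fitted effect of over 40% in size; top concentration of the series not given in the record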
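Purified cruzain (1.5 nM final) was preincubated with compounds for 15 min at room temperature in 100 mM sodium acetate pH 5.5, 5 mM DTT, 0.01% Triton X-100. Reaction started with 2 uM Z-FR-AMC; AMC fluorescence change over 60 s gave activity.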
Active calls of the source: *; ? = inconclusive; / = no result given; & = joins results of further samples; [ ] = remark or other dose. Unless noted, calls come from the whole dose curve; as a rule, active means well fitted rising curve with a large enough effect; inconclusive means small, poorly fitted or top-dose-only effect; inactive means no such curve, though single readings can be large or run the other way. Potency is the fitted concentration of half-maximal effect.

SMILES	RE007 growth inh	Lassa entry inh	StopGo reporter	MARV entry inh	NS1 function inh	Cruzain noTriton	SARS PLpro yeast	Cruzain Triton
Cc1ccc(C)c(S(=O)(=O)N2CCCCC2CCNC(=O)C(=O)NC2CC2)c1 (configuration not stated)	-2%	-21%	-17%	1%	/	/	0%	/
CCCCNC(=O)CCc1c(C)nc2nc(-c3cc(OC)cc(OC)c3)nn2c1C	-1%	1%	-24%	-3%&-3%	8%	?	1%[6.58 µM]	2.9%
CCOC(=O)c1c(C)c(P(=S)(N2CCOCC2)N2CCOCC2)n(C)c1C	1%	-24%	-10%	?	-53%	?	-4%	1.3%
CCOc1ccccc1C(=O)NC1CCN(Cc2nnnn2C2CCCC2)CC1	-1%	0%	2%	-16%&-16%	-10%	11%	4%	-4.6%
O=C(Nc1ccc(N2CCN(C(=O)c3ccccc3)CC2)cc1)c1ccc2c(c1)OCO2	4%	-23%	-9%	-25%	11%	-22%	8%	-4.7%
COc1ccc(C(=O)NNC(=O)C(C)NC(=O)c2ccccc2NC(=O)c2ccco2)cc1 (configuration not stated)	-6%	13%	-19%	6%[46.1 µM]	12%	7%	9%	-3.2%
COc1ccccc1NOC(=O)CCOc1ccccc1	-20%	1%[46.1 µM]	36%[activator]	8%[46.1 µM]	/	/	/	/
CN1C=CC=C/C1=C1\SC(=S)N(N)C1=O	-1%	14%	-2%	0%	-4%	/	-4%	/
Cc1onc(-c2ccccc2Cl)c1C(=O)Nc1ncn[nH]1	0%	?	-1%	22%	6%	3%	-26%	-0.8%
CCOC(=O)c1ccc(NC(=O)CSc2ncccn2)cc1	13%	1%	4%	5%	-11%	4%	-11%	2.0%
C=CCNC(=O)C1CC(=O)N(c2ccc(OCC(=O)Nc3c(C)cccc3C)cc2)C1 (configuration not stated)	-8%	-7%	-1%	1%[46.1 µM]	?	/	0%	/
C=CCn1c(O)c(/C=C2/C=CC=N2)c(=O)[nH]c1=O	12%	/	-6%	/	2%	-2%	3%	-2.3%
Cn1cc(C(=O)c2ccc(Cl)cc2Cl)cc1C(=O)N/N=C(\N)COc1ccc(Cl)cc1	1%	?	?	?	1%	/	21%	/
O=C(O)c1cnccn1	-15%	-1%	-20%	2%	6%	0%	2%	0.3%
Cc1c(O)ccoc1=O	8%	/	-19%	/	3%	/	0%	/
CCc1noc(C)c1C(=O)Nc1nc(-c2cc(C)ccc2C)c(C)s1	6%	?	-18%	?	21%	16%	-7%	-2.5%
Cc1ccc(-n2c(COCC(=O)O)nc3cccnc32)cc1	/	13%[46.1 µM]	-5%	/	/	1%	/	1.6%
COc1ccc(C2c3cc(OC)c(OC)cc3CCN2C(=O)c2cccc([N+](=O)[O-])c2)cc1OC (configuration not stated)	2%	/	-11%	/	-14%	/	1%	/
CSCCC(Nc1ncnc2ccc(Br)cc12)C(=O)O (configuration not stated)	-7%	17%	/	4%	-7%	-13%	5%	1.2%
COc1ccccc1NC(=O)C(C)OC(=O)C1CCN(S(=O)(=O)c2ccc(C)c(C)c2)CC1 (configuration not stated)	-8%	0%	-19%	?	/	/	1%	/
C/C=C/C(=O)Nc1cccc(C(F)(F)F)c1	-2%	8%	1%	?	-8%	-1%	-38%	-2.3%
O=C1NC(=S)S/C1=C\c1ccc(SCc2ccccc2)o1	-11%	-5%	?	-11%	6%	-16%	-11%	-22%
CN(CC(=O)Nc1ccccc1Cl)C(=O)COC(=O)/C=C/c1ccc(C(F)(F)F)cc1	-19%	/	-19%	/	-3%	/	1%	/
Cc1noc(Cn2c(=O)c3ccccc3n(CC(=O)Nc3cccc(Cl)c3C)c2=O)n1	/	14%[46.1 µM]	0%	/	/	-2%	/	-5.0%
CCCCn1nnnc1SCC(=O)Nc1sc2c(c1C#N)CCCC2	-29%	-7%	?	2%	-27%	1%	-2%	-5.8%
Brc1ccc(-c2nnc3sc(CN4CCN(c5ccccc5)CC4)cn23)cc1	3%	5%	-17%	7%	3%	-25%	-2%	8.0%
CC(=O)N1c2ccc(S(=O)(=O)N3CCC(C(=O)N4CCCCC4)CC3)cc2CC1C (configuration not stated)	-3%	/	-23%	/	-8%	/	4%	/
CCO[C@@H]1OC(C(=O)N2CCN(Cc3ccc4c(c3)OCO4)CC2)=C[C@H](C)[C@H]1CCCO	6%	/	-6%	/	5%	/	1%	/
CCSc1nc2sc3c(c2c(=O)n1CC)CC(C)(C)OC3	-10%	11%	?	4%[46.1 µM]	15%	7%	-3%	-2.1%
COc1ccccc1NC(=O)CCNS(=O)(=O)c1ccc2c(c1)CC(C)N2C(=O)C1CC1 (configuration not stated)	-9%	/	-23%	/	1%	/	-8%	/
Cc1onc(-c2ccccc2)c1C(=O)Nc1ccccc1N1CCOCC1	0%	0%	0%	-17%	1%	10%	1%	-4.2%
O=C(COc1ccccc1-c1ccccc1)NCc1cccc(Cl)c1	13%	2%	-2%	?	4%	-7%	-49%	-9.6%
Cc1ccc2oc(-c3cc(NC(=O)c4cccs4)cc(C)c3O)nc2c1	/	-5%[46.1 µM]	4%	12%[46.1 µM]	/	6%	/	5.3%
Cc1cccc(OCC(=O)Nc2ccc(C(=O)c3ccc(C(=O)O)cc3)cc2)c1	23%	17%	30%[activator]	13%[46.1 µM]	11%	/	0%	/
O=C(C1COc2ccccc2O1)N1CCN(c2ccccn2)CC1 (configuration not stated)	-9%	-8%	10%	-2%	/	/	5%	/
CC1CCCCN1CCCNC(=O)C1CCN(c2nnc(-n3cccc3)s2)CC1 (configuration not stated)	-9%	8%[46.1 µM]	-4%	12%[46.1 µM]	-9%	/	-2%	/
Cc1oc(C(=O)O)cc1COc1ccc2c3c(c(=O)oc2c1)CCC3	8%[3.69 µM]	-5%	-4%	13%	5%	-8%	-5%	-1.5%
O=C(CSc1nc2c(c(=O)[nH]1)CN(Cc1ccc3c(c1)OCO3)CC2)Nc1cc(F)ccc1F	/	?	6%	18%[46.1 µM]	/	-3%	/	-2.6%
Nc1nnc2c(C(F)(F)F)nc3ccccc3n12	8%	0%[46.1 µM]	-7%	-3%[46.1 µM]	9%	/	1%	/
O=S(=O)(Nc1ccc2c(c1)OCCO2)c1ccc(F)cc1	13%	-4%	62%[activator]	-18%	12%	9%	-1%[6.58 µM]	-1.9%

Fetched by structure from above (3):
SMILES	RE007 growth inh	Lassa entry inh	StopGo reporter	MARV entry inh	NS1 function inh	Cruzain noTriton	SARS PLpro yeast	Cruzain Triton
Nc1nnc2c(C(F)(F)F)nc3ccccc3n12	8%	0%[46.1 µM]	-7%	-3%[46.1 µM]	9%	/	1%	/
CC1CCCCN1CCCNC(=O)C1CCN(c2nnc(-n3cccc3)s2)CC1 (configuration not stated)	-9%	8%[46.1 µM]	-4%	12%[46.1 µM]	-9%	/	-2%	/
O=C(COc1ccccc1-c1ccccc1)NCc1cccc(Cl)c1	13%	2%	-2%	?	4%	-7%	-49%	-9.6%

Other structures follow:
SMILES	RE007 growth inh	Lassa entry inh	StopGo reporter	MARV entry inh	NS1 function inh	Cruzain noTriton	SARS PLpro yeast	Cruzain Triton
CCOc1ccc(Br)cc1S(=O)(=O)Nc1nc(CN2CCOCC2)nc2sc(C)c(C)c12	-10%	27%	-3%	5%	7%	?	-2%	-1.6%
O=C(C[n+]1ccc(C(=O)c2ccccc2)cc1)Nc1ccccc1OC(F)F	-4%	-2%[46.1 µM]	-14%	-14%[46.1 µM]	/	/	10%	/
Fc1ccc(Nc2c(-c3ccco3)nc3ccccn23)cc1	-8%	?	?	10%[46.1 µM]	-22%	-4%&-1%	-32%	-16%&-12%
Cc1noc(C)c1COC(=O)c1cccnc1Cl	26%	2%	-3%	10%[46.1 µM]	/	/	-2%	/
CC(C)(C)c1ccc(C(=O)N2CCN(Cc3ccccc3)CC2)cc1	5%	/	-14%	/	27%	/	10%	/
Cc1cnc(C(=O)OCC(=O)c2ccc[nH]2)cn1	-11%	?	0%	4%	/	/	-1%	/
CCCCOC(=O)c1ccc(NC(=O)CSC2=Nc3ccccc3C3CC=NN23)cc1 (configuration not stated)	15%	-2%	-6%	-5%	1%	?	0%	-0.8%
COC(=O)c1ccc(NC(=O)C(=O)NCCc2csc3nc(-c4ccccc4F)nn23)cc1	/	13%[46.1 µM]	?	/	/	5%	/	0.1%
COc1ccc(C2NCCc3sccc32)cc1 (configuration not stated)	2%	18%	11%	?	5%	/	1%	/
CCOC(=O)c1cccc(NC(=O)c2cnccn2)c1	-1%	9%	30%	7%	-11%	-3%	-8%	5.0%

Just SARS PLpro yeast and Lassa entry inh, for two of the compounds above:
Molecule | SARS PLpro yeast | Lassa entry inh
Cc1noc(C)c1COC(=O)c1cccnc1Cl | -2% | 2%
CCCCOC(=O)c1ccc(NC(=O)CSC2=Nc3ccccc3C3CC=NN23)cc1 (configuration not stated) | 0% | -2%

New compounds follow.
SMILES	RE007 growth inh	Lassa entry inh	StopGo reporter	MARV entry inh	NS1 function inh	Cruzain noTriton	SARS PLpro yeast	Cruzain Triton
O=C(COc1ccccc1)NCCSc1ccccc1	-13%	-11%	45%[activator]	9%	-13%	-6%	0%	-2.9%
Cc1noc(C)c1COC(=O)C1CCN(C(=O)c2ccc(Cl)cc2)CC1	-7%	-1%	-29%	0%[46.1 µM]	/	/	6%	/
CC12C=CC(=O)C=C1CCC1C2C(=O)CC2(C)C(=O)CCC12 (configuration not stated)	1%	-2%	?	12%	/	/	/	/
COc1ccc2c(Cl)c(C(N)=O)sc2c1	3%	6%	14%	30%&30%	-5%	-5%	-8%	-4.6%
CC(=O)Nc1ccc(/C=C/c2nc(-c3ccccc3O)n[nH]2)cc1	5%	/	25%	/	7%	/	14%	/
COCCNC(=O)C(c1ccco1)N(C(=O)Cn1nnc2ccccc21)c1cccc(C)c1C (configuration not stated)	-9%	?	40%[activator]	-7%&9%	-11%	13%	19%	2.3%
CCN(CC(=O)Nc1ccc(NC(C)=O)cc1)C(=O)CCCSc1nc2ccccc2[nH]1	-10%	27%	-5%	-4%[46.1 µM]	/	/	-1%	/
O=C(CN1C(=O)C2C3C=CC(C3)C2C1=O)Nc1ccc(S(=O)(=O)Nc2nccs2)cc1 (configuration not stated)	2%	/	2%	/	8%	/	-1%	/
